LANA-H2B inh – blocks KSHV LANA binding to histone H2A/H2B; Q9QR71; cell-free LANA-H2A/H2B peptide, fluorescence polarization; inhibition, % (no concentration beside the values); 320,000 tested, 0.6% active; in the data active = inhibition mostly above about 10%, no sharp cut-off; inactive = mostly below about 6.7%;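 also: stock transfer was 7.5 nL into about 10 µL; 0% = median of vehicle wells and 100% = median of positive control wells; one replicate is shown; the record names a cut of 25% in any replicate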
Calb FLC – C. albicans growth modulation with fluconazole; C. albicans CaCi-2 (fluconazole-resistant clinical isolate) + fluconazole, Alamar Blue growth, 48 h; growth inhibition, % (test concentration not listed); 300,000 tested, 0.57% active;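 active = most replicates above 75%; inconclusive = exactly half above 75%; inactive = most below 75%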;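 also: all wells also contain fluconazole at 8 µg/ml as a sub-toxic cotreatment; 0% = median of DMSO wells and 100% = median of geldanamycin control wells; wells of about 8 µL received 7.5 nL stock; the first replicate is given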
B2AR ag – agonists of human beta-2 adrenergic receptor inducing internalization; P07550; Am2.2-beta2AR cells, FAP receptor internalization, flow cytometry; reference of the scale not given here; response, % (test concentration not listed); 340,000 tested, 0.43% active; AID 504454;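 active = response above a set limit, near 3 SD of response in nonfluorescent compounds, cut at about 42% in these data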;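 also: stock transfer was 100 nL into about 11 µL; a reference agonist was the positive control; negative values mostly stem from fluorescent compounds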
Target sequence (P07550 whole entry, looked up): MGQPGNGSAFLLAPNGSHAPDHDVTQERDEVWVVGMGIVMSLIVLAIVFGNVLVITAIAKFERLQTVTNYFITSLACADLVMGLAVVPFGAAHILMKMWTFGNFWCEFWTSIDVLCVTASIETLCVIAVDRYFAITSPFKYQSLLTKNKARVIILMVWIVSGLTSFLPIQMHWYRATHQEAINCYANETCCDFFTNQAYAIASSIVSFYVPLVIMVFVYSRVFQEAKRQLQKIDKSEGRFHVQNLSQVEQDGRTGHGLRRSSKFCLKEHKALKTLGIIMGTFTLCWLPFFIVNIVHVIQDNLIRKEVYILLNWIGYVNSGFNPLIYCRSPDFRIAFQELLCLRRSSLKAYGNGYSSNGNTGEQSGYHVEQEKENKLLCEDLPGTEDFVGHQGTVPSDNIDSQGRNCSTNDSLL
Vif A3G – inhibitors of Vif binding to APOBEC3G peptide, primary screen, biochemical, TR-FRET, GST-Vif 1-94, biotin-A3G peptide, dose response retest (AID 1117319); TR-FRET GST-Vif / biotin-A3G peptide binding; higher % means a stronger effect; test concentration not given here; strong numbers were not always called active; inhibition, %, or IC50 in µM where a hit was titrated; 260,000 tested, 0.57% active;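 active = above the screen mean plus three standard deviations and confirmed in dose response; inconclusive = results disagree or hit not tested in dose response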;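 also: Vif residues 1-94 fused to GST binding biotinylated APOBEC3G peptide 110-148; 0% = full assay without inhibitor and 100% = GST in place of GST-Vif; retest series ran down from 100 µM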
HNF4A DNA FP – change in binding of human HNF4 alpha to DNA. P41235. HNF4a-FITC DNA binding, fluorescence polarization, 1 h. activity change, % at 10 µM. 360,000 tested, 0.3% active. AID 1224865; in the data active = activity change above about 30%, passing the limit was not always enough;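 also: controls were the assay level and a saturating level of protein; the project sought stronger binding though the title names inhibitors; some compounds called inactive have numbers as strong as hits; positive values seem to mean higher polarization but the record does not say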
Target sequence (P41235 whole entry, looked up): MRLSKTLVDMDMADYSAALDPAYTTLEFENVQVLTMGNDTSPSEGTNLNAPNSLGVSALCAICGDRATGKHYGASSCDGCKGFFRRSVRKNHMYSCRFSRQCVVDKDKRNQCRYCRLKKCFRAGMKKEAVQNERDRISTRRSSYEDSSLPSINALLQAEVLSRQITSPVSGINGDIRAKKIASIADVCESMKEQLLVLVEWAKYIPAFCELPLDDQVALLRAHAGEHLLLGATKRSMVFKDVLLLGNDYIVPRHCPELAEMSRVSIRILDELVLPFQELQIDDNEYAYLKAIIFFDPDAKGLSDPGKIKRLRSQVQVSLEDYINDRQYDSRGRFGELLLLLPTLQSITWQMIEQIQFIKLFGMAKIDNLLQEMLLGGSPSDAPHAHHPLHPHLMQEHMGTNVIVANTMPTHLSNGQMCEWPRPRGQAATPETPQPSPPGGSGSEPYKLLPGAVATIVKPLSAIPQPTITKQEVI
RanGTP-Imp inh – inhibitors of RanGTP-importin-beta interaction, primary screen, biochemical, FRET, CFP-Ran, YFP-importin-beta, homogeneous. cell-free CFP-Ran/YFP-importin-beta FRET ratio. inhibition, % (concentration not given with the values). 300,000 tested, 1.1% active;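 active = most replicates above 15%; inconclusive = exactly half above 15%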;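 also: 0% = DMSO wells and 100% = Ran loaded with GDP instead of GTP; wells of about 40 µL received 100 nL stock; the first replicate is given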
ALR H2O2 inh – blocks human ALR sulfhydryl oxidase activity. P55789. purified ALR, DTT oxidation, H2O2 HRP-luminol luminescence. inhibition, % (test concentration not listed). 290,000 tested, 3.8% active. AID 485317;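 active = mean and each replicate at 75% or more; inconclusive = only one of the two met; inactive = neither met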;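 also: stock transfer was 7.5 nL into about 7.5 µL; 0% = neutral wells and 100% = wells with inactivated enzyme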
Target sequence (P55789 whole entry, looked up): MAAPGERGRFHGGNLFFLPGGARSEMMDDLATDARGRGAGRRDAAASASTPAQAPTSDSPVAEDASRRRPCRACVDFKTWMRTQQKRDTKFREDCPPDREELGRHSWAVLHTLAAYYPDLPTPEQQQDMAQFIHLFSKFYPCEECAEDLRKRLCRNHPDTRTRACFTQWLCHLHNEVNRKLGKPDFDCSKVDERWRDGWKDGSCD
Numbers without * were called inactive; ? = inconclusive; . = no result given; & = joins results of further samples. Compounds as they come, and some 6.3% of all compounds hit somewhere here.

SMILES	LANA-H2B inh	Calb FLC	B2AR ag	Vif A3G	HNF4A DNA FP	RanGTP-Imp inh	ALR H2O2 inh
CCn1nc(C)c([N+](=O)[O-])c1C(=O)NNC(=O)c1ccc(Cl)cc1	-1.6	-6	5	13%	-3.4	-3.2	2
CC1Cc2nc(SCC(=O)NCc3ccco3)n(Cc3ccccc3)c(=O)c2S1 (stereo not given)	-3.8	1	2	0%	-1.0	1.9	6
CCC1Sc2ccccc2N(CC(=O)NC2CCCC2)C1=O (stereo not given)	-3.1	-11	-2	-1%	0.2	-1.0	-1
COc1ccc2cc3c(N)nn(C(=O)c4ccccc4Cl)c3nc2c1	-3.4	14	1	.	4.3	3.2	16
Cc1ccccc1NC(=O)c1cc2c(=O)n3cccc(C)c3nc2s1	2.4	5	-7	.	2.6	84*	.
CCn1c2ccccc2c2nnc(SCC(=O)NCc3cccs3)nc21	-2.0	9	-5	-11%	1.7	-0.5	-14
COc1ccccc1N(CC(=O)NCCSCc1ccccc1)S(=O)(=O)c1ccc(C)cc1	1.9	7	-3	.	-3.4	-7.0	-14
CC(=O)NC1=NN(C(C)=O)C(C)(c2ccc(C)o2)S1 (stereo not given)	-2.3	0	3	.	-1.1	0.4	-8
CCC(C)[C@H](NC(=O)NCCCOC(C)C)C(=O)OC (stereo not given in full)	1.4	-5	1	5%	-0.9	0.6	4
O=S(=O)(Nc1ncccn1)c1ccc(NC(=S)Nc2ccccc2)cc1	7.5	28	2	.	-1.1	3.9	3
CCC(=O)N1CCc2cc(S(=O)(=O)NCCC(=O)N3CCN(c4ccccn4)CC3)ccc21	6.3	.	-10	12%	-2.4	.	-16
Cc1ccc(CNC(=O)CS(=O)(=O)Cc2nc(-c3ccc(C)cc3)oc2C)cc1	-3.5	18	7	5%	-2.5	2.5	3
COC(=O)/C(=C/c1c[nH]c2ccccc12)NC(C)=O	9.3	-3	-3	8%	-2.7	5.3	30
CCCNC(=O)Cn1c2ccccc2c2nc(=O)cc(C)n21	3.2	0	6	68%	1.1	-2.1	-11
O=C(CN1C(=O)NC2(CCCCCC2)C1=O)NC1CC1	1.2	1	18	-1%	-0.6	-1.0	41
COC(=O)c1[nH]c2cc(OC)ccc2c1NC(=O)c1c(F)cccc1F	-0.2	4	-2	11%	0.0	7.1	11
O=C(Nc1ccccc1F)c1cc(S(=O)(=O)N2CCCCC2)cs1	1.6	-2	-2	12%	-0.6	2.0	-16
C=CCn1c(COc2ccccc2)nnc1SC(C)C(=O)N/N=C/c1cc(Cl)ccc1O (stereo not given)	-3.5	2	0	2%	4.6	-3.2	-21
Cc1cc(NC(=O)COC(=O)c2ccccc2O)no1	-0.1	.	5	.	2.5	.	-11
COc1ccc(NC(=O)c2cc3c(-c4ccc(OC)c(OC)c4)nn(C)c3s2)cc1OC	-1.1	8	38	-5%	-0.8	-3.1	.
CCOC(=O)c1c(O)c(O)c(C(=O)OCC)n1-c1ccccc1	-1.2	-2	0	7%	-1.3	?	22
Cc1c(Cl)cn2c(=O)cc(CN3CCN(c4ccc(F)cc4)CC3)nc2c1Cl	3.9	49	.	?	.	-3.8	-15
CC(C)(C)c1ccc(C(=O)O/N=C(\N)c2ccccc2)cc1	-4.4	-4	5	.	-1.9	?	0
O=C(Nc1ccccc1)c1nc[nH]c1C(=O)NCCCNC(=O)c1[nH]cnc1C(=O)Nc1ccccc1	-6.8	.	5	.	2.0	.	-1
O=[N+]([O-])c1cc(F)c(N2CCCCC2)cc1N1CCOCC1	0.2	-4	-9	9%	-0.7	?	.

Molecules listed so far that have an aryl thioether with sulfur outside any ring, in the order listed:
SMILES	LANA-H2B inh	Calb FLC	B2AR ag	Vif A3G	HNF4A DNA FP	RanGTP-Imp inh	ALR H2O2 inh
CC1Cc2nc(SCC(=O)NCc3ccco3)n(Cc3ccccc3)c(=O)c2S1 (stereo not given)	-3.8	1	2	0%	-1.0	1.9	6
CCn1c2ccccc2c2nnc(SCC(=O)NCc3cccs3)nc21	-2.0	9	-5	-11%	1.7	-0.5	-14
C=CCn1c(COc2ccccc2)nnc1SC(C)C(=O)N/N=C/c1cc(Cl)ccc1O (stereo not given)	-3.5	2	0	2%	4.6	-3.2	-21

New compounds follow
SMILES	LANA-H2B inh	Calb FLC	B2AR ag	Vif A3G	HNF4A DNA FP	RanGTP-Imp inh	ALR H2O2 inh
O=C(N/N=C/c1ccc(OC(F)F)cc1)c1ccc(CSc2nc3ccccc3[nH]2)cc1	3.6	25	11	8%	0.6	7.1	-14
Cc1ccccc1C(=O)Nc1ccc2c(c1)OCCO2	2.0	-3	-1	-8%	1.5	3.7	-19
CC(=O)c1ccc(OCc2cc(C(=O)N3CCN4CCCC4C3)no2)cc1 (stereo not given)	-1.8	2	-11	.	0.4	1.2	-2
Cc1ccc(C(=O)O/N=C2\CCSc3ccc(C)cc32)cc1	-3.7	11	1	-1%	-0.3	-1.1	3
Cc1ccc(-n2nnnc2SCC(=O)N2CCNC2=O)cc1C	-3.1	.	12	-6%	1.9	.	2
COCC(=O)N1CCC(n2nnc3cc(F)ccc32)CC1	-0.5	11	1	4%	-2.7	-1.8	-2
CCCn1c(=O)c(C(=O)NCCc2ccccc2)c(O)c2ccccc21	2.4	-12	0	.	-1.0	-1.3	0
O=C(c1cn(-c2ccccc2)nc1-c1cccs1)N(CCO)Cc1ccccc1	2.8	-3	-8	-15%	-0.9	2.5	-1
COc1ccc(-c2cc(C(=O)Nc3ccc(Br)cc3)no2)cc1	0.1	0	0	0%	3.1	-0.5	5
CC(=O)SCCC(=O)N1C(C)CCCC1C(=O)O (stereo not given)	1.0	-2	14	1%	0.0	6.8	-2
O=C1C(Cl)=C(N2CCCCC2)C(=O)N1c1ccccc1Cl	-1.1	10	-2	6%	-2.9	1.4	17
O=C(NCc1cccnc1)c1ccc(-c2ccc(Cl)cc2)o1	0.6	9	4	-7%	2.2	-0.6	-11
O=C(COc1cccc(Cl)c1)Nc1ccccc1N1CCCCC1	.	-6	-5	-3%	2.4	-4.1	.
COc1ccc(C)cc1S(=O)(=O)N1CCN(S(=O)(=O)c2cc(C)ccc2OC)CC1	2.3	0	2	15%	-2.4	-0.4	-15
O=c1c2sccc2[nH]c(=S)n1Cc1ccccc1	-4.5	39	-5	-6%	0.1	3.6	31
O=S(=O)(c1ccccc1)c1nc(-c2ccccc2F)oc1NCc1cccnc1	-4.7	33	-1	3%	0.5	-0.6	7
Cc1nc2nc(C)c(CCC(=O)NCCCN3CCN(c4cccc(Cl)c4)CC3)c(C)n2n1	-8.7&-2.9	5&-14	-5&-9	0%&-13%	0.6&-1.3	0.0&0.1	35&60
CCN1CCCC1CNC(=S)Nc1ccc(C(C)=O)cc1 (stereo not given)	-5.4	29	3	10%	4.1	5.6	18
Cc1ccc(C(=O)NC(N(C)C)C(Cl)(Cl)Cl)cc1 (stereo not given)	-4.0	-19	-4	5%	-1.3	0.8	-7
O=C(O)c1ccc(S(=O)(=O)c2ccc([N+](=O)[O-])cc2[N+](=O)[O-])cc1	-3.7	2	-7	53µM*	-1.5	-0.7	22
CCS(=O)(=O)c1ccc2oc(SCC(=O)NCCc3ccc(F)cc3)nc2c1	-0.2	1	-3	5%	5.7	0.4	40
O=[N+]([O-])c1ccc(/C=N/n2c(CO)nc3ccccc32)s1	10	25	-2	12%	-8.5	-8.4	-51
Cc1c(C(=O)N2CCCCC2)sc(NC(=O)C23CC4CC(CC(C4)C2)C3)c1C#N	-1.1	5	-11	-7%	-2.2	3.0	8
CC(=O)Oc1ccc(NC(=O)CSc2ccccc2)cc1	-2.1	6	7	-3%	-1.4	-3.9	-22
Cc1cccc(C)c1NC(=O)COC(=O)C1CC1	2.2	.	-8	-9%	-1.0	.	-1

Going on with the list.
SMILES	LANA-H2B inh	Calb FLC	B2AR ag	Vif A3G	HNF4A DNA FP	RanGTP-Imp inh	ALR H2O2 inh
S=C(Nc1ccc2c(c1)OCO2)NC1CCN(Cc2ccccc2)CC1	-3.0	-21	9	-2%	3.0	-3.4	8
Cc1ccc(N/C=C(\C#N)S(=O)(=O)c2ccccc2)cc1	4.9	-3	1	-5%	0.9	?	-9
Cc1cccc(NC(=O)COc2ccc(/C=C\c3[nH]c(=O)[nH]c(=O)c3[N+](=O)[O-])cc2)c1	1.0	0	-4	0%	-3.7	-0.6	29
O=C(CN1CCN(c2ccccc2O)CC1)Nc1cccnc1Cl	2.1	12	-8	.	2.5	2.0	99*
O=C(c1ccccc1)c1ccc(OCC(O)CN2CCCC2)cc1 (stereo not given)	1.5	8	-7	-5%	-2.3	7.9	-3
COc1cccc(NC(=O)C(NCC2CCCCC2)c2ccccc2)c1 (stereo not given)	2.9	-11	3	?	6.9	-0.5	-3
Cc1ccc(Oc2ccc(S(=O)(=O)NCC(C)(C)N3CCOCC3)cc2)cc1	0.6	-5	-8	21%	0.2	1.8	-49
CC(OC(=O)/C=C/c1cccc(Cl)c1)C(=O)NC1CCCCC1C (stereo not given)	4.6	.	0	-7%	-0.1	-3.6	3
CCOC(OCC)P(=O)(C(C)C)C(C)C	-6.8	-11	-1	7%	2.2	2.4	6
CC(C)Cn1c(Br)nc2c1c(=O)n(CCC#N)c(=O)n2C	0.1	-4	4	-6%	1.2	0.4	.
Cc1ccccc1N1C(S)=C(C#N)C(=O)NC12CCCCC2	.	0	1	.	-4.4	4.0	.
CCOC(=O)N1CCN(C(=O)CSc2nc(-c3cccc(C)c3)ns2)CC1	3.4	15	-14	-1%	2.9	1.6	-4
CCn1nnnc1NCc1ccc(N2CCCC2)cc1	-1.7	16	6	22%	7.4	5.6	28
CCOC(=O)CC(NC(=O)Cn1nnc(-c2ccccc2F)n1)c1ccccc1Cl (stereo not given)	-2.9	-10	-3	14%	4.2	-0.7	-3
CCOC(=O)C1CCCN(C(=O)N2CCOCC2)C1 (stereo not given)	2.5	-7	-2	0%	0.9	-1.3	-4
CCOC(=O)NC1=NCC(C)(C)S1	.	.	-7	-4%	-2.4	.	.
CCCCN(C(=O)c1cccc(-n2cccc2)c1)c1c(N)n(CCCC)c(=O)[nH]c1=O	1.7	7	0	23%	-10.0	0.0	-1
Cc1ccc(CNC(=O)CC2(CC3=NS(=O)(=O)c4ccccc4N3)CCCC2)cc1	0.3	-11	-4	.	-0.4	0.3	-2
O=C1C=C(NCCc2ccccc2)C2(CCCCC2)O1	-1.3	-6	5	-6%	-0.5	-5.7	6
O=C(CNC(=O)c1ccccc1F)NCCc1ccccc1F	-1.4	.	-5	.	2.8	.	-10
Nc1nc(NCCO)nc(NCc2ccccc2)c1[N+](=O)[O-]	1.4	-2	-2	0%	-1.8	-1.6	.
CN(CC(=O)Nc1cccc(F)c1)C(=O)c1ccc(-c2cccc(C(F)(F)F)c2)o1	.	-13	1	-2%	3.2	?	.
Cc1ccc(-n2ncc3c(SCc4ccccc4)ncnc32)cc1	1.3	6	8	.	-0.1	3.8	-7
CCOC(=O)c1c(S(=O)(=O)NCC(=O)N2CCN(c3cccc(OC)c3)CC2)c(C)n(C)c1C	1.4	3	1	2%	4.6	0.0	.
COc1ccc2cc(S(=O)(=O)N3CCCCC3)ccc2c1S(=O)(=O)N1CCCCC1	-4.0	-3	10	2%	-1.7	4.2	4
COc1ccc(CC2(CO)CCN(Cc3cnn(-c4ccc(F)cc4)c3)CC2)cc1	-0.1	-2	-3	2%	0.7	-1.6	.
CC1CCCC(NC(=O)C2CCN(S(=O)(=O)c3cnc[nH]3)CC2)C1C (stereo not given)	5.0	-3	-1	.	-0.6	0.4	1
CCO[C@H]1OC(C(=O)N2CCOCC2)=C[C@@H](c2ccc(Br)cc2)[C@@H]1CCCO	-0.3	-7	-2	-5%	2.0	-4.7	1
Cc1cn(C2CCCCC2)c(=O)n(-c2ccccc2)c1=O	.	.	-7	-9%	2.9	.	.
Cc1ccc2nc(-c3ccccc3)oc(=O)c2c1	0.2	-3	12	.	-0.6	-4.2	1
